# MgrA DNA FP: S. aureus MgrA activity modulators, primary screen, biochemical, S. aureus Newman, fluorescence polarization; MgrA-DNA binding; inhibition, %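 (about 10 µg/mL by stock and volumes)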; actives 0.13% (n = 84,000);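 active means above 50% in either of two replicates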;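 further: 0% = protein plus DNA without compound and 100% = DNA alone without protein; higher means less MgrA bound to DNA so lower polarization; one replicate is shown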
# S aureus helic: inhibitors of S. aureus replicative helicase, primary screen, biochemical, fluorescence unwinding readout | replicative DNA helicase (DnaC/DnaB), Staphylococcus aureus | purified S. aureus helicase, fluorescence unwinding assay; about half of the hits fall short of the stated cut | inhibition, %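 (tested at about 80 µM)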 | actives 0.05% (n = 120,000) | AID 485395, 2010;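 active means both duplicates at 50% or more, or one of them with a favoured structure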;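 further: 0% = mean of negative control wells and 100% = mean of positive control wells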
# Numbers without * were called inactive; i = inactive; . = not tested or not shown.
SMILES,MgrA DNA FP,S aureus helic
C=CCn1cnc2c(nnn2-c2ccc(C)c(C)c2)c1=O,.,0.0
COc1cc(N)c(-c2nc3ccccc3[nH]2)cc1OC,-0.6,7.0
O=C(CSC1=NC2CCCCC2N1)N1CCOCC1 (configuration not stated),1.5,16.0
Cc1nc(-c2cccs2)sc1-c1ccnn1C(=O)NC(C)C,-1.2,.
N#CC(=C=[N-])c1nc2ccccc2nc1-[n+]1cccc(NC(=O)c2ccc(Br)o2)c1,.,2.0
COCCn1c(N)c(NCc2ccccc2)c(=O)n(CC(=O)NCCc2ccc(OC)c(OC)c2)c1=O,.,13.0
CC(=O)N(/C=C1\Sc2ccccc2C1=O)c1ccc(C(=O)O)cc1,-1.6,.
O=C(COC(=O)c1cc(=O)[nH]c(=O)[nH]1)NCc1ccccc1,.,-13.0
c1ccc(-c2ccc(-c3ccccn3)s2)nc1,-0.7,.
CCOc1ccccc1OCc1n[nH]c(=S)n1N,.,6.0
COc1ccc(Oc2cccc(Cl)c2C#N)cc1,1.3,.
COc1c(C)cc(S(=O)(=O)Nc2ccc(Cl)cn2)c(C)c1C,3.2,6.0

# Looked up by compound from the entries so far (two):
SMILES,MgrA DNA FP,S aureus helic
N#CC(=C=[N-])c1nc2ccccc2nc1-[n+]1cccc(NC(=O)c2ccc(Br)o2)c1,.,2.0
O=C(COC(=O)c1cc(=O)[nH]c(=O)[nH]1)NCc1ccccc1,.,-13.0

# Full records, looked up by structure:
# Results for Cc1nc(-c2cccs2)sc1-c1ccnn1C(=O)NC(C)C = MgrA DNA FP = -1.2; S aureus helic = .
# Results for N#CC(=C=[N-])c1nc2ccccc2nc1-[n+]1cccc(NC(=O)c2ccc(Br)o2)c1 = MgrA DNA FP = .; S aureus helic = 2.0

# Returning to the listing, repeating the five entries before the break.
SMILES,MgrA DNA FP,S aureus helic
O=C(COC(=O)c1cc(=O)[nH]c(=O)[nH]1)NCc1ccccc1,.,-13.0
c1ccc(-c2ccc(-c3ccccn3)s2)nc1,-0.7,.
CCOc1ccccc1OCc1n[nH]c(=S)n1N,.,6.0
COc1ccc(Oc2cccc(Cl)c2C#N)cc1,1.3,.
COc1c(C)cc(S(=O)(=O)Nc2ccc(Cl)cn2)c(C)c1C,3.2,6.0
O=S(NC1CCCCC1)C12CC3CC(CC(C3)C1)C2 (configuration not stated),0.1,11.0
Cc1nnc(N(C)C(=O)c2ccc3c(c2)OCO3)s1,1.4,-2.0
CC(C)N(CC(N)=O)C(=O)COc1ccccc1C#N,.,-15.0
Cc1ccc(NC(=O)CSc2nc3c(c(=O)n2CCc2ccccc2)SCC3)cc1Cl,2.0,15.0
NC(=O)NC(=O)CSc1nnc(C2CC2)n1N,.,0.0
COc1ccc(CCC(N)=O)cc1OC,0.0,6.0
c1cc(-c2nn[nH]n2)ccc1CN1CCCCC1,-1.1,7.0
CN(C)C(=S)SCC(=O)Nc1ccc2c(c1)OCCO2,.,-4.0
Cn1cnnc1SCc1ccc(Cl)cc1,-1.4,2.0
Cc1ccc(NC(=O)c2ccco2)cc1NC(=O)C(C)(C)Oc1ccc(Cl)cc1,3.3,7.0
CCC(C)(C)C(=O)N1CCC(C(=O)OC)CC1,0.9,2.0
O=C(O)CCN1CCC(Cc2ccccc2)CC1,-7.2,8.0
Cc1ccc(S(=O)(=O)N2N=C(c3ccccc3)CC2c2ccc(Cl)cc2)cc1 (configuration not stated),3.0,-22.0
CSc1cccc(NC(=O)c2cc3c(ccc4ccccc43)o2)c1,1.3,15.0
CC(=O)N1CCC(C(=O)Nc2nc3ccc(Cl)cc3s2)CC1,2.2,.
C=C(C)CN(CC)C(=O)CSc1nc2ncc(Cl)cc2[nH]1,.,-10.0
CCOc1ccccc1N1CCN(Cc2ccsc2)CC1,-4.6,24.0
N#Cc1cc2c(nc1SCc1ccccc1)CCC2,-2.2,10.0
O=S(=O)(/N=C(\N/N=C/c1ccccc1O)N1CCCC1)c1ccccc1,.,-8.0
Cc1ccc(C(CC(=O)O)c2ccco2)cc1 (configuration not stated),0.3,-1.0
COc1ccc(C(=O)Nc2ccccc2C(=O)NC(C(=O)O)C(C)C)cc1 (configuration not stated),0.4,-4.0
CCOCCCn1c(C)c(C)c(C#N)c1N,.,-45.0
Oc1c(Cl)cc(Cl)cc1CNn1cnnc1,15.8,-4.0
Cc1snc(-c2c(Cl)cccc2Cl)c1C(=O)O,-3.5,.
NC(=O)C(Cc1ccccc1)NC(=O)Cc1ccc(F)cc1 (configuration not stated),.,14.0
CNC(=O)Nc1ccc2nc(C)sc2c1,4.7,-2.0
COc1ccc(-n2c(SCC(=O)NC(C)(C#N)C(C)C)nc3ccccc32)cc1 (configuration not stated),.,7.0
CC(N=C1NS(=O)(=O)c2ccccc21)C(=O)N1CCc2ccccc2C1 (configuration not stated),.,-3.0
O=C(O)c1cccnc1SCCC(F)=C(F)F,-2.0,.
C/C=C/C(=O)c1cc(Cl)ccc1O,-9.2,3.0
O=S(=O)(c1ccc(S(=O)(=O)N(Cc2ccccc2)Cc2ccco2)cc1)N1CCCCCC1,0.5,1.0
C=CCN(CC=C)C(=O)Cc1ccc(F)cc1,5.9,7.0
O=S(=O)(c1ccc(F)cc1)N1CCCc2cccc(O)c21,.,8.0
O=C(CN1C(=O)/C(=C\c2cccc(F)c2)Oc2ccccc21)N1CCN(c2ncccn2)CC1,0.5,3.0
CC(C)(Cc1nc2ccccc2[nH]1)c1nc2ccccc2[nH]1,3.4,6.0
O=C1c2ccccc2-c2onc3c(Oc4ccccc4)cc(O)c1c23,9.1,-6.0
COc1cc(C2C(C#N)=C(C)NC3=C2C(=O)CC(c2ccc(Cl)cc2)C3)ccc1OC(C)=O (configuration not stated),1.0,.
COc1ccccc1CNC(=O)COC(=O)c1ccncc1,.,-8.0
CC1CCN(C(=S)NC(=O)C2CCCCC2)CC1,0.1,-7.0
Cc1ccc(/C=C2\CCCC3=C2Nc2nnnn2C3c2ccc(C)cc2)cc1 (configuration not stated),-9.6,9.0
O=C(O)C1CCC(CNCc2cccnc2)CC1 (configuration not stated),.,10.0
COC(=O)Nc1ncc(CN2CCCC2)s1,.,11.0
Cc1ccc(-n2cc(-c3ccccc3)c3c(N4CCCC4)ncnc32)cc1,0.9,-14.0
CC(C)n1cnc2c(NCc3ccccc3)nc(NCCO)nc21,1.2,.
COc1ccc2nc3oc(C(=O)NC4CC4)cc3cc2c1,-3.5,12.0
CCOC(=O)C1CCCN(Cn2nnn(-c3ccc(OC)cc3)c2=S)C1 (configuration not stated),.,4.0
O=C(c1ccccc1)c1ccc(-c2ccccc2)cc1,0.3,.
O=C1CC(c2ccccc2)C(=O)N1Cc1cccs1 (configuration not stated),0.6,.
CC(=O)N(C)c1c(C)n(C)n(-c2ccccc2)c1=O,.,2.0
Brc1ccc2ncnc(NCCCN3CCOCC3)c2c1,-1.4,1.0
CCOC(=O)N1CCN(S(=O)(=O)c2ccc(Br)s2)CC1,-2.0,4.0
Cc1c(-c2ccccc2)oc2c(C(=O)N3CCC(=O)CC3)cccc2c1=O,.,-8.0
CCOC(=O)C1C(=O)C=C(c2ccco2)CC1c1cccs1 (configuration not stated),.,-15.0
CCOC(=O)/C(C#N)=C/c1cc(C)n(-c2ccc(C)cc2)c1C,3.1,3.0
Cn1c(N)c(C(C[N+](=O)[O-])c2ccccc2Cl)c(=O)n(C)c1=O (configuration not stated),-0.7,.
CS(=O)(=O)CS(=O)(=O)NNc1ncc(C(F)(F)F)cc1Cl,.,-18.0
Cc1cccc(C(C)C)c1NC(=O)c1ccncc1,2.0,-6.0
COC(=O)c1cccc(N2C(=O)C3C4C=CC(CC4)C3C2=O)c1 (configuration not stated),-1.5,.
COC(=O)CC1C(=O)NCCN1C(=O)NC1CCCCC1 (configuration not stated),-0.3,12.0
CCc1ccc(C(=O)On2c(-c3ccc(C(C)(C)C)cc3)nc3ccccc3c2=O)cc1,2.5,.
# The results go on.
SMILES,MgrA DNA FP,S aureus helic
COc1cc(C2N=C(N)Nc3nc4ccccc4n32)cc(OC)c1OC (configuration not stated),.,9.0
NC1=NC(=O)CC(C(=O)NCCc2ccccc2)S1 (configuration not stated),0.0,16.0
CN[C@H](CC(C)C)C(=O)N[C@H]1C(=O)N[C@@H](CC(N)=O)C(=O)N[C@H]2C(=O)N[C@H]3C(=O)N[C@H](C(=O)N[C@H](C(=O)O)c4cc(O)cc(O)c4-c4cc3ccc4O)[C@H](O)c3ccc(c(Cl)c3)Oc3cc2cc(c3O[C@@H]2O[C@H](CO)[C@@H](O)[C@H](O)[C@H]2O[C@H]2C[C@](C)(N)[C@H](O)[C@H](C)O2)Oc2ccc(cc2Cl)[C@H]1O,2.5,.
O=C1C2C3C=CC(CC3)C2C(=O)N1c1ccccc1F (configuration not stated),-0.3,.
Cc1nnsc1C(=O)n1nc(C(C)(C)C)cc1C(C)(C)C,-2.1,.
CC1(C)C(=O)OC(c2ccc(F)cc2)C(C)(C)C1=O (configuration not stated),.,-10.0
Cc1nc2sc3c(NC4CCCCC4)ncnc3c2c2c1COC(C)(C)C2,0.3,3.0
CN(C)c1ccc(/C=C2\C(=O)ON=C2c2cccs2)c(Cl)c1,12.2,.
CCOC(=O)c1c(NC(=O)CSc2nnc(C)s2)sc2c1CCCCC2,.,4.0
CC(C)(C)c1ccc(C(=O)CC(SC2CCCCC2)C(=O)O)cc1 (configuration not stated),-0.9,3.0
Cc1nn(-c2ccccc2)nc1CNS(=O)(=O)c1cccs1,-1.8,.
Cc1nc2cc(Cl)ccc2c(=O)n1-c1nc2ccccc2[nH]1,-0.6,.
CCc1nnc(NC(=O)c2sc(C)nc2C)s1,.,13.0
COc1ccc(CCN(C)C(=O)c2ccc3c(=O)n4c(nc3c2)CCCCC4)cc1OC,.,-9.0
CC1=NN(C(=O)c2ccccc2)C(C)(NN(C)c2ccccc2)C1 (configuration not stated),2.9,12.0
CCc1ccc(C2CC(=O)NC(SCC(=O)Nc3ccc(Br)cc3)=C2C#N)cc1 (configuration not stated),-2.2,.
O=C(NCCOc1ccccc1-c1ccccc1)c1ccco1,-0.7,4.0
CCOC(=O)c1ccc(Nc2nnc(-c3cc4cc(Br)ccc4oc3=O)s2)cc1,1.1,.
CCOC(=O)N1CCN(Cc2cccc3ccccc23)CC1,-0.2,-5.0
Cc1cc(O)c2c(-c3ccccc3)cc(=O)oc2c1,.,15.0
COc1ccc2oc(=O)c(-c3csc(C)n3)cc2c1,.,-4.0
COC(=O)CCSCc1cn2ccsc2n1,.,21.0
CCc1ccc(-n2c(=S)sc3c(=O)n(-c4ccccc4)c(SCC#N)nc32)cc1,-0.1,11.0
N#CC(C#N)=c1s/c(=C\c2ccc(-c3ccc(S(=O)(=O)N4CCOCC4)cc3)o2)c(=O)n1Cc1ccco1,.,i
Cc1cc(C)c(N=c2scc(C)n2Cc2ccccc2)c(C)c1,-1.5,11.0
Cc1c(-c2ccccc2)oc2ccccc2c1=O,1.9,.
COc1cc2ccncc2cc1OC,.,-7.0
Cc1cc(Cl)ccc1OCCCC(=O)NC1CCSC1=O (configuration not stated),2.2,8.0
Cc1cc(C)c2c(=O)n(CC(=O)Nc3ccc(Br)c(C)c3)sc2n1,.,11.0
COc1ccccc1CNC(=O)CCS(=O)(=O)c1cccs1,.,8.0
CCCCOC1CCC(OCCCC)OC1 (configuration not stated),.,5.0
O=C(NCCN1CCCC1)C(c1ccccc1)N1Cc2ccccc2C1=O (configuration not stated),.,-12.0
O=C(O)C1CCN(C(=O)CCc2ccccc2)CC1,0.4,.
c1ccc(Cc2nc(-c3ccccc3)no2)cc1,.,12.0
CCCNC(=O)c1cc2c(s1)CS(=O)(=O)C2,-2.0,3.0
O=C(NC1CCCCCCC1)c1cc(=O)[nH]c2ccc(S(=O)(=O)N3CCCCC3)cc12,.,30.0
O=C(CN1CCN(c2ccc(C(F)(F)F)cn2)CC1)c1ccccc1,.,-9.0
CC1CCCC(C)N1C(=O)COC(=O)/C=C/c1cccs1 (configuration not stated),.,-4.0
CCn1c(=O)n(CC)c2cc(N3CCCC3)c(NC(=O)C(C)(C)C)cc21,.,36.0
CN(C)c1ccc(/C=N/NC(=O)N/N=C/c2ccc(N(C)C)cc2)cc1,.,-15.0
CN1c2ccsc2C(=O)/C(=C\Nc2ccc(F)cc2)S1(=O)=O,-1.1,.
COc1ccccc1OCCSc1nc2ccccc2n1CC(N)=O,-2.0,.
O=C(OCC(F)(F)C(F)F)c1ccc(O)cc1,.,9.0
O=C(NC1CC1)c1ccc2c(c1)[nH]c(=S)n1c3ccccc3nc21,.,22.0
Cc1ccc(S(=O)(=O)CCN2CCN(CCS(=O)(=O)c3ccc(C)cc3)CC2)cc1,-0.2,.
CCCOc1cc(C(=O)O)ccc1OC,1.4,.
O=C(Nc1ccc(Cl)cc1)C1COc2ccccc2O1 (configuration not stated),-3.3,14.0
Cc1cc(OC(=O)/C=C/c2ccc(F)cc2)cc(=O)o1,.,-8.0
O=C1C2C3c4ccccc4C(c4ccccc43)C2C(=O)N1CCN1CCNCC1 (configuration not stated),-0.7,10.0
CC[C@H]1OC(=O)[C@H](C)[C@@H](O[C@H]2C[C@@](C)(OC)[C@@H](O)[C@H](C)O2)[C@H](C)[C@@H](O[C@@H]2O[C@H](C)C[C@H](N(C)C)[C@H]2O)[C@](C)(O)C[C@@H](C)/C(=N\OCOCCOC)[C@H](C)[C@@H](O)[C@]1(C)O,3.2,.
CCOC(=O)N1CCN(C(=O)c2ccc3c(c2)ncn3C2CCCC2)CC1,-1.1,3.0
O=C(NC1CCN(Cc2ccccc2)CC1)C1CCC1,-0.9,.
O=C(OCC(=O)N1CCCC1=O)c1cccc(Oc2ccccc2)c1,.,12.0
CC/C(=N\Nc1ccc([N+](=O)[O-])cc1)c1ccc(-c2ccccc2F)cc1,-1.8,.

# Only part of the results is shown. The share of hits here may be higher or lower than overall.
